Assay outcomes as filed in PubChem.
AID504770: growth inhibition of E. coli YBA685, primary screen, V. cholerae RctB inhibitors; AID 504770, 2011; E. coli YBA685 rctB-dependent plasmid, OD600 growth, 3 h; stronger effect = lower value; z-score (no concentration beside the values); 130,000 compounds, 0.27% hits;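 active = z-score under -2 on both plates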;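 also: wells of about 30 µL received 100 nL stock; score is relative to mean and SD of the test wells; the first replicate is given; strong numbers were not always called active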
CapD inh: Bacillus anthracis CapD inhibitors, primary screen, biochemical, fluorescence intensity; purified CapD enzyme, fluorescence intensity read-out; stronger effect = lower value; some hits fall short of the stated cut; z-score (no concentration beside the values); CapD gamma-glutamyltranspeptidase (Bacillus anthracis Ames Ancestor); 140,000 compounds, 0.23% hits;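 active = z-score under -4 in either of two replicates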;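 also: stock transfer was 100 nL into about 40 µL; score is relative to mean and spread of the plate; one replicate is shown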
Numbers without * were called inactive; . = not tested or not shown. Outcome played no part in choosing rows; overall some 0.41% were active at least once.

Order of values – AID504770	CapD inh
> O=C(CCN1CCc2ccccc2C(O)(c2ccccc2)C1)c1ccc2c(c1)OCCO2 (stereo not drawn)
 : -0.25	-0.25
> CCOC(=O)c1ccc(Cn2c3cc(Br)ccc3c3nn4cc(-c5ccc(F)cc5)nc4nc32)o1
 : .	-0.24
> O=C(c1ccc(CNS(=O)(=O)c2ccc(Br)cc2)cc1)N1CCc2ccccc21
 : 0.1	11.7
> N#Cc1cccc(CSC2=NCN(C3CC3)CN2)c1
 : .	0.64
> Cc1cc(C)n2nc(C)cc2n1
 : -0.25	0.545
> O=C(O)c1ccc2cnccc2n1
 : .	-0.095
> O=[N+]([O-])c1cc2c(cc1C1N(Cc3ccccc3)CCN1Cc1ccccc1)OCO2
 : .	0.27
> O=C(Nc1ccc(F)cc1F)c1nc(-c2cccc(F)c2)n2c1CCCCC2
 : -0.5	0.09
> CCOc1ccc(NC(=O)c2ccc(N3C(=O)NC4CC3(C)Oc3ccccc34)cc2)cc1 (stereo not drawn)
 : -0.65	0.645
> CC(C#N)(NC(=O)COc1ccc(C#N)cc1)C1CC1 (stereo not drawn)
 : 0.05	.
> O=C(CSc1nc2c(c(=O)n1Cc1ccccc1)SCC2)NCc1ccco1
 : -0.9	.
> CON(C)C(=O)c1cc2cccc3c2n(c1=O)CC3
 : .	3.48
> Cc1cc(OC(=O)N(C)C)nc2c1c(C)nn2C
 : .	3.17
> c1ccc(OCc2nnc3n2CCCCC3)cc1
 : -0.9	.
> COc1ccccc1OCc1cccc(C(=O)N2CCCCCC2)c1
 : 0.2	0.42
> CCSc1nnc(SC(C)C(=O)Nc2ccc(C#N)cc2)s1 (stereo not drawn)
 : -0.15	.
> O=C(CSc1cnc2ccccc2n1)Nc1ccc(F)cc1
 : -0.75	-0.475
> CC(=O)[C@@H]1SC(N)=C(C#N)[C@H]1c1cccs1
 : .	11.9
> S=C(Nc1ccc(Cl)cc1)N1CCSC1c1ccc(Br)cc1 (stereo not drawn)
 : 0.3	-0.69
> COc1cccc2c1OC13CCCCC1C2/C(=C(\C)O)C(=O)N3 (stereo not drawn)
 : .	-0.08
> COc1ccc2c(COC(=O)c3c(-c4ccccc4)noc3C)cc(=O)oc2c1
 : -0.65	.
> O=C(Nc1cc(C(F)(F)F)cc(C(F)(F)F)c1)c1cc2ccccc2oc1=O
 : .	0.865
> CCC(C)C(=O)Nc1nccs1 (stereo not drawn)
 : 0	-0.27
> COc1ccc(CN2CNc3nc4ccccc4n3C2)cc1
 : 0.2	0.115
> COC(=O)C1CSCN1 (stereo not drawn)
 : -1.8	.
> CC[C@H](CO)NCCN[C@H](CC)CO
 : .	2.15
> CCOC(=O)N1CCN(C(=O)c2c[nH]c3ccc(S(=O)(=O)N(CC)c4ccc(F)cc4)cc3c2=O)CC1
 : .	5.04
> CCC(CC)(C(=O)O)C(=O)O
 : 0.25	.
> Cc1nnc(SCC(=O)N/N=C/c2cccc3cccnc23)n1-c1ccccc1
 : -0.8	-0.57
> CCCCNC(=O)c1sc2nc3n(c(=O)c2c1C)CCC3
 : -0.05	0.255
> O=C(NCc1n[nH]c(=O)c2ccccc12)NC1CCCCC1
 : -1.3	.
> Cc1nc(-c2ccccc2)ncc1C(=O)Nc1ncc(C(F)(F)F)cc1Cl
 : .	-0.58
> COCc1snnc1C(=O)OC
 : -0.15	-0.015
> O=C(Nc1cccnc1)C1CC(c2ccc(F)cc2)=NO1 (stereo not drawn)
 : 0.05	7.34
> O=C1CC(=O)N(Cc2ccc(F)cc2)C(=O)N1
 : 0	0.425
> O=C(COc1ccc2c(C(F)(F)F)cc(=O)oc2c1)N1CCc2ccccc21
 : 0.9	1.28
> Cc1cn2c(nc1=O)OC1CC2OC1CO (stereo not drawn)
 : 2	-0.08
> O=C(COc1ccccc1)Nc1nonc1NC(=O)COc1ccccc1
 : -0.05	0.355
> CS(=O)(=O)c1cc(C#N)c(N2CCN(C(=O)c3cccs3)CC2)nc1-c1ccccc1
 : .	-0.115
> Oc1ccc2ccccc2c1C=NCc1cn2ccsc2n1
 : 2.1	-0.47
> CCN(CC)S(=O)(=O)c1ccc(N2CCN(c3ccccc3F)CC2)nc1
 : -0.25	.
> O=C(O)c1ccc(NC(=O)C2CC(=O)N(CCc3ccccc3)C(=Nc3ccc(F)cc3)S2)cc1 (stereo not drawn)
 : .	0.325
> CCOc1ccc(/C=C2\SC(=S)N(CCCC(=O)N(CCO)Cc3ccccc3)C2=O)cc1
 : .	-1.55
> O=C(NCc1ccccn1)c1nnc(-c2cccnc2)o1
 : 0.4	0.5
> OC(COCc1ccccc1)CN1CCCC1 (stereo not drawn)
 : 1.25	.
> CCCc1nc2nc(C)c(N)c(=O)n2[nH]1
 : -0.55	-0.005
> CCCNC(=O)c1c(O)c2ccccc2n(C)c1=O
 : -0.1	.
> Cc1[nH]c2ccccc2c1C(Nc1ccccn1)c1cccs1 (stereo not drawn)
 : 0.3	0.755
> CCOC(=O)CSc1nc(N)c2c3c(sc2n1)CC(C(C)(C)C)CC3 (stereo not drawn)
 : .	-0.615
> O=C(CCn1cnc2onc(-c3ccc(F)cc3)c2c1=O)NCc1cccc(Cl)c1
 : 0.55	1.2

Another view of three compounds above:
structure: Cc1[nH]c2ccccc2c1C(Nc1ccccn1)c1cccs1 (stereo not drawn)
- AID504770: 0.3
- CapD inh: 0.755
structure: CCOC(=O)CSc1nc(N)c2c3c(sc2n1)CC(C(C)(C)C)CC3 (stereo not drawn)
- AID504770: .
- CapD inh: -0.615
structure: O=C(CCn1cnc2onc(-c3ccc(F)cc3)c2c1=O)NCc1cccc(Cl)c1
- AID504770: 0.55
- CapD inh: 1.2

Carrying on:
Order of values – AID504770	CapD inh
> CC(C)(C)C1CCC(OC(=O)c2ccco2)CC1 (stereo not drawn)
 : 0.2	0.44
> Cc1cc(C)c(C)c(S(=O)(=O)Nc2ccccc2C(=O)NCC(=O)NCc2ccco2)c1C
 : 0.95	.
> CN(C)C(CNC1CC2CC1C1CCCC21)c1ccco1 (stereo not drawn)
 : -0.25	.
> CN1CCN(CCCNC(=O)OCCCCc2ccc([N+](=O)[O-])cc2)CC1
 : .	-0.79
> COc1cc(N)n(S(=O)(=O)c2ccc(C)cc2)n1
 : 0	0.65
> Cc1cc(NC(=O)c2ccc(C#N)cc2)n(-c2ccccn2)n1
 : 0.75	0.655
> Oc1cccnc1CCc1ccccc1
 : -0.6	15
> O=C(CCCn1c(=O)c2sccc2n(Cc2ccc(F)cc2)c1=O)NCc1ccc2c(c1)OCO2
 : 1.1	0.21
> COc1ccccc1/C=C(\C#N)c1ccc(C)cc1
 : 2	0.05
> CSc1nnc2c(n1)OC(C)(C)Nc1ccccc1-2
 : .	-0.07
> N#Cc1ccc(-c2ccncc2)nc1SCC(N)=O
 : 1.65	22.6
> COc1ccc(-c2cc(-c3ccccc3)c(C#N)c(SC3CCCCC3O)n2)cc1 (stereo not drawn)
 : -0.85	-0.335
> C=CCNC(=O)CCn1c(=S)[nH]c2cc3c(cc2c1=O)OCO3
 : -0.1	0.31
> Cc1ccc(C2OC3(C(=O)c4ccccc4C3=O)C3C(=O)N(c4ccc(F)cc4)C(=O)C23)cc1 (stereo not drawn)
 : .	-0.185
> CCNc1nc(NCC)nc(OCCOC(C)=O)n1
 : -0.7	1.08
> COC(=O)C1=C(Nc2ccc(O)cc2)CSC1
 : .	-0.78
> CCCOC(=O)C1=C(C)NC2=C(C(=O)CC(c3ccc(OC)c(OC)c3)C2)C1c1ccccc1OCC (stereo not drawn)
 : .	1.5
> CSc1nnc(-c2ccc(S(=O)(=O)n3nc(C)cc3C)s2)n1C
 : -0.9	70.1
> COc1ccc(-c2cc(C)no2)cc1S(=O)(=O)NCCN1CCN(c2ccccc2)CC1
 : -0.1	0.25
> CS(=O)(=O)N1CCc2cc(NC(=O)Nc3ccc(F)cc3F)ccc21
 : .	0.165
> Cc1cc(OC(=O)N(C)C)nc(SCc2c(F)cccc2Cl)n1
 : -1.25	0.57
> CC1=C(C(=O)c2ccccc2)CC(C(=O)c2ccccc2)=C(C)N1
 : -0.8	0.15
> CCOC(=O)CCn1nc(-c2ccccc2)cc1N
 : -0.85	-0.225
> CCOc1ccc(C(=O)NC(CC)CC)cc1OCC
 : -0.75	-0.63
> NS(=O)(=O)c1ccc(N2C(=O)CSC2=S)cc1
 : -1.2	.
> CCOC(=O)C1=C(c2ccccc2)OC(N)=C(C#N)C1c1ccccc1 (stereo not drawn)
 : 1.05	0.155
> Cc1ccc(C23CC4CC(CC(CNC(=O)CC56CC7CC(C5)CC(CC(=O)NCC58CC9CC(C5)CC(c5ccc(C)cc5)(C9)C8)(C7)C6)(C4)C2)C3)cc1
 : .	-0.44
> CCOC(=O)c1cnc(-c2cccc(OC)c2)[nH]c1=O
 : -0.85	3.08
> CSC(=NCCc1ccc(Cl)cc1)NC(=O)c1c(Cl)cccc1Cl
 : .	-0.48
> C=CCN(C(=O)Cn1nc(Cc2cccnc2)c2ccccc2c1=O)c1ccccc1
 : -0.2	0.24

Entries of single compounds from above. Screens in order: AID504770, CapD inh
Cc1ccc(C23CC4CC(CC(CNC(=O)CC56CC7CC(C5)CC(CC(=O)NCC58CC9CC(C5)CC(c5ccc(C)cc5)(C9)C8)(C7)C6)(C4)C2)C3)cc1 is listed as ., -0.44
CCOc1ccc(C(=O)NC(CC)CC)cc1OCC is listed as -0.75, -0.63
C=CCN(C(=O)Cn1nc(Cc2cccnc2)c2ccccc2c1=O)c1ccccc1 is listed as -0.2, 0.24

Next part:
Order of values – AID504770	CapD inh
> O=S(=O)(c1ccc(Cl)cc1)N1CCN(Cn2nnc(-c3ccccc3)n2)CC1
 : -0.9	.
> Cc1ccc(N(C)C(=O)C2CCCN2S(=O)(=O)c2cccc3nsnc23)cc1 (stereo not drawn)
 : 1.15	-2.35
> O=C(Nc1cccc(C(F)(F)F)c1)Nc1ncc2c(n1)-c1ccccc1CC2
 : .	1.53
> COc1cccc(CN2CCC(C(=O)N3CCCC(C)C3)CC2)c1 (stereo not drawn)
 : -0.35	.
> COc1ccc(S(=O)(=O)NCc2cccs2)cc1C(C)(C)C
 : -0.8	.
> CSc1ncccc1C1=N/C(=C\c2ccc(C)cc2)C(=O)O1
 : 0.5	1.14
> Cc1cc(C(=O)CN(C)c2ccccc2)c(C)n1-c1c(C)n(C)n(-c2ccccc2)c1=O
 : 0.7	.
> CC12CCC3C(CC=C4CC(O)CCC43C)C1C/C(=C\c1ccc(C(F)(F)F)cc1)C2=O (stereo not drawn)
 : -0.15	0.345
> COc1cccc(NCc2nnc(SCC(=O)c3ccc(Cl)s3)n2C2CCCCC2)c1
 : -0.2	.
> CC1CN(C(=O)COc2ccccc2)CC(C)O1 (stereo not drawn)
 : 0	.
> CCOc1ccc2c(c1)C(C)=CC(C)(C)N2C(=O)Cn1cnc2c1c(=O)n(C)c(=O)n2C
 : -0.45	.
> CCc1ccc(NC(=O)N2CCC(c3ccccc3)C2)cc1 (stereo not drawn)
 : -0.35	2.67
> CC1CN(c2nnc(-c3ccccc3)c3ccccc23)CC(C)O1 (stereo not drawn)
 : 1	-0.595
> Cc1ccccc1C1C(/C=c2/sc3nc4ccccc4n3c2=O)=C(c2cccs2)Oc2ccccc21 (stereo not drawn)
 : .	-0.07
> O=S(=O)(NCC(c1cccs1)N1CCc2ccccc2C1)c1ccccc1 (stereo not drawn)
 : 1.7	.
> O=C(O)C1C2C=CC(C2)C1C(=O)NCc1ccccn1 (stereo not drawn)
 : -0.05	-0.605
> COc1ccc(-c2cnc(=O)n(Cc3cccc(C(F)(F)F)c3)c2)cc1
 : .	2.9
> COC(=O)/C=C1\SC(N)=NC1=O
 : -1.05	-0.865
> Cc1[nH]n(C(N)=S)c(=O)c1C(c1cccc(Cl)c1Cl)C(C#N)C#N (stereo not drawn)
 : -0.65	-0.72
> Brc1ccc(-c2nc3ccc(Cc4ccc5nc(-c6ccc(Br)cc6)c(-c6ccc(Br)cc6)nc5c4)cc3nc2-c2ccc(Br)cc2)cc1
 : .	0.55
> C=CCN(CC=C)C(=O)COc1ccccc1C(N)=O
 : -0.75	.
> O=C(NCC1CCCO1)c1ccc(COc2ccc(F)cc2)o1 (stereo not drawn)
 : 1.45	-0.37
> Cc1ccc(Cn2c(=O)c3c(ncn3C)n(C)c2=O)cc1
 : .	0.24
> S=C(c1ccc(-c2ccccc2)o1)N1CCCCC1
 : -1.3	-1.01
> Cn1c(=O)c2c(nc(NCc3ccc4c(c3)OCO4)n2Cc2ccc(Cl)cc2Cl)n(C)c1=O
 : .	-0.385
> COc1ccc(C2Nc3ccccc3C(=O)N2c2cccc3ccccc23)cc1COc1ccc(Cl)cc1 (stereo not drawn)
 : .	29.2
> CC1=CCC(c2cnc(-c3ccccc3)c(C)c2)NC1c1ccccc1 (stereo not drawn)
 : -0.3	0.165
> CCOc1ccc(NC(=O)C2(c3ccccc3)CCOCC2)cc1
 : -0.7	25.8
> CCCSc1[nH]c2ccccc2c1N=Nc1c(Cl)cc(Cl)cc1Cl
 : .	-1.94
> Cc1ccc(C(=O)NC(=O)CSc2nnc(C)s2)cc1
 : -1.3	0.225
> COc1ccc(C(=O)NCCc2c(C)[nH]c3ccc(OCc4ccccc4)cc23)cc1OC
 : .	-0.18
> COCCN(CCc1ccncc1)S(=O)(=O)c1cc2[nH]c3c(c2cc1C)C(=O)CCC3
 : -0.4	0.115
> COc1ccccc1/C=C1\N=C(c2ccc(OC)c(OC)c2)N(c2cccc(F)c2)C1=O
 : .	-0.32
> Cc1onc(-c2ccccc2Cl)c1NC(=O)OC(C)c1cccnc1 (stereo not drawn)
 : -0.15	0.165
> S=c1n(-c2ccccc2)cnn1CN1CCN(c2ccccn2)CC1
 : -0.5	.
> CCCN(CCC)C(=O)CC(c1ccccc1)C1CCOC(C)(C)C1 (stereo not drawn)
 : 0.2	-0.78
> CC(C)C(C)(C#N)NC(=O)CN1CCOCC1 (stereo not drawn)
 : -0.3	.
> CC(C)(C)C(=O)N1CCc2nc3ccccc3c(C(=O)O)c2C1
 : .	-0.13
> CC(=O)Nc1ccc(Br)cc1-c1nc2cc3ccccc3cc2[nH]c1=O
 : .	-0.325
